Screening data (PubChem BioAssay)
PINK1 modulator: A Quantitative High throughput Screen to Identify Chemical Modulators of PINK1 Expression | PINK1 immunofluorescence, high-content cytometry, 24 h | 410,000 tested, 0.2% active | Potency, µM (highest dose often 76.6 µM), without a hit: top-dose activation (PINK1 increase), usual class: activators; active = well fitted activation curve with a large enough effect; inconclusive = small, poorly fitted or top-dose-only effect; inactive = flat fitted curve, though single readings scatter; cell line not stated here;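 further: potency means the concentration at half of the fitted maximal effect; % of control where 0% means no effect; nearly all actives have a fitted effect of over 65% in size; a mitochondrial uncoupler was the plate control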
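Stable cell line treated 24 h with compounds at 5 concentrations (CCCP controls), then fixed and immunostained for PINK1 plus nuclear and cell stains; PINK1 immunofluorescence quantified by laser-scanning microplate cytometry.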
D2 ag: Beta-Arrestin HTS for Positive Allosteric Modulators of the Human D2 Dopamine Receptor: Agonists; activation, % (test concentration not listed); DiscoveRx PathHunter D2 beta-arrestin, luminescence, 90 min; 100% = 57 uM dopamine signal; D(2) dopamine receptor (Homo sapiens), P14416; 360,000 tested, 0.084% active; in the data active = activation above about 40%; inconclusive = about 15% to 40%; inactive = below about 15%; further: compound concentration not given in the record; the text of the record calls up to 30% inactive
Target sequence (P14416 whole entry, looked up): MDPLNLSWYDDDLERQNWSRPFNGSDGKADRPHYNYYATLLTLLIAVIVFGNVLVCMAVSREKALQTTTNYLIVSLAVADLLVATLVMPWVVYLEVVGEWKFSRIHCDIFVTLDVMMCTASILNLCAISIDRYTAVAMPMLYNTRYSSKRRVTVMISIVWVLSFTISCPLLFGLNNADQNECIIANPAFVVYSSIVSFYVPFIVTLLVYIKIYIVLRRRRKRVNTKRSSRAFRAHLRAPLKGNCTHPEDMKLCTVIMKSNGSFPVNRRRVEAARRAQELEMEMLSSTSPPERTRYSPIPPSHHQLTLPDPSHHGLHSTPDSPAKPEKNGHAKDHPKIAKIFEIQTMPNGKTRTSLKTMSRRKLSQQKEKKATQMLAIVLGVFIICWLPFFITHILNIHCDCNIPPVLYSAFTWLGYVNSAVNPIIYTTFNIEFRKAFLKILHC
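DiscoveRx PathHunter D2 beta-arrestin cells (2,100/well) attached overnight, then compound-stimulated 90 min at 37 C in HBSS/10 mM HEPES/0.1% Tween-20 buffer; beta-galactosidase complementation read by luminescence after 1 h at ambient temperature. Dopamine 57 uM final (EC100) as control.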
D2 PAM: Beta-Arrestin HTS for Positive Allosteric Modulators of the Human D2 Dopamine Receptor: Potentiators; DiscoveRx D2 beta-arrestin cells, luminescence, 90 min; 100% = 57 uM dopamine signal; potentiation, % (test concentration not listed); 360,000 tested, 0.23% active; active = potentiation of 50% or more; inconclusive = 30% to 50%; inactive = 30% or less;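 further: compound concentration not given in the record; tested on top of an EC20 dose of dopamine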
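PathHunter D2 cells, attached overnight at 37 deg C, received compound in DMSO plus dopamine at EC20 (50 nM final) for 90 min at 37 deg C. Beta-arrestin recruitment was read as luminescence after 1 h with detection reagent at ambient temperature.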
CtBP-E1A blk: qHTS Assay for Inhibitors of the CtBP/E1A Interaction; CtBP / adenovirus E1A interaction (AlphaScreen); AlphaScreen GST-E1A/His-CtBP binding, 1536-well; active compounds read low; control for the full effect not named in the record; activity change, % (test concentration not listed); 340,000 tested, 0.49% active; AID 651724, 2012; in the data active means activity change below about -65%; inconclusive means about -30% to -65%; inactive means above about -30%; further: on the % scale 0 is the no-effect control and ±100 the full control effect
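In 5 uL wells, 23 nL compound meets equimolar GST-E1A and His-CtBP (5X stock 125 nM each) for 2 h, 37 °C. Beads (5X, 50 ug/mL) then 1 h, 37 °C, dark.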
Six1-Eya2 blk: qHTS Assay for Inhibitors of the Six1/Eya2 Interaction; AlphaScreen GST-Six1/His-Eya2 binding, biochemical; active compounds read low; control for the full effect not named in the record; activity change, % (no concentration beside the values); 360,000 tested, 0.56% active; AID 651725, 2012; in the data active = activity change below about -65%; inconclusive = about -30% to -65%; inactive = above about -30%; further: on the % scale 0 is the no-effect control and ±100 the full control effect
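Homogeneous AlphaScreen proximity assay pairing GST-Six1 with His-tagged Eya2 (added as 5X mix: 250 nM and 500 nM) in 50 mM Tris pH 8.0, 300 mM NaCl, 1 mM TCEP. Glutathione donor and nickel acceptor beads; 1 h, 37 °C, dark.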
TRPML1 ag: qHTS for Agonists of the Human Mucolipin Transient Receptor Potential 1 (TRPML1); TRPML1-expressing cells, Ca2+ dye fluorescence, FDSS; host cell line not named in the record; reference of the full effect not given here; 410,000 tested, 0.12% active; activation, % (concentration not given with the values); Mucolipin-1 (Homo sapiens), Q9GZU1; in the data active = activation above about 50%; inconclusive = about 30% to 50%; inactive = below about 30%; further: 0% is about no effect; the text of the record puts the active cut at 80%
Target sequence (Q9GZU1 whole entry, looked up): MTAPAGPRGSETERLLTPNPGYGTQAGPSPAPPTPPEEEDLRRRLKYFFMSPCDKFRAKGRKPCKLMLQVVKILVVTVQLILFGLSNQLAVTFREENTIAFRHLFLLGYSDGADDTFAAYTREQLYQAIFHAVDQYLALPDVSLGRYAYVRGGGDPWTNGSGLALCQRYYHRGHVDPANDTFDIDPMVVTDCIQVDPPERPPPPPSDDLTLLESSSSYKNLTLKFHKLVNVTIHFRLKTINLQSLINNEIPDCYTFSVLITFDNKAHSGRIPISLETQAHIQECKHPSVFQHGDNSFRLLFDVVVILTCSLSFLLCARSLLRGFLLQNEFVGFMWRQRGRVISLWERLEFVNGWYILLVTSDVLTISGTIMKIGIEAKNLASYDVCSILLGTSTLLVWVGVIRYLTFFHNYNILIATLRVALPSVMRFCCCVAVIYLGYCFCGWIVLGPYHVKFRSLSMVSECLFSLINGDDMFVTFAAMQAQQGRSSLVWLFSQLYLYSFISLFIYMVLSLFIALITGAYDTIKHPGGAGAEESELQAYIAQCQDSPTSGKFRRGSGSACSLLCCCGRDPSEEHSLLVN
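Agonist activity was taken from a 110 s kinetic Ca2+ dye read on the FDSS after pinning compounds onto TRPML1-DL cells. The cells were seeded at 1,500/well with Tet inducer, incubated about 16 h, then dye-loaded at room temperature.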
An asterisk follows results filed as active; ? = inconclusive; . = no result given; & = joins results of further samples; [ ] = another dose, or the depositor's remark.

Each structure is followed by: PINK1 modulator | D2 ag | D2 PAM | CtBP-E1A blk | Six1-Eya2 blk | TRPML1 ag
- Cc1cc(Br)ccc1OCC(=O)NNC(=O)CCc1ccccc1
  7.3% | 2.2 | -2 | 5 | -2 | 0.1
- FC(F)(F)c1cccc(Cc2noc(CN3CCCCC3c3ccccn3)n2)c1 (stereo not drawn)
  -0.5% | 4.1 | -3 | 7 | -13 | 1.9
- COC(=O)c1ccc(/C=N/NC(=O)C2CC(=O)N(c3ccc(OC)cc3)C2)cc1 (stereo not drawn)
  0.4% | -4.1 | -12 | 0 | 22 | 2.2
- CC(C)C(=O)N1CCCC1(C)C(=O)Nc1ccc(F)cc1 (stereo not drawn)
  2.2% | -6.1 | -8 | -8 | -15 | -0.2
- CCOC(=O)Nc1ccc2c(c1)Cc1cc([N+](=O)[O-])ccc1-2
  6.3% | 0.1 | -20 | 1 | 3 | 1.2
- O=C(NCCCN1CCC(Cc2ccccc2)CC1)C1CCN(S(=O)(=O)N2CCC3(CC2)OCCO3)CC1
  -1.9% | 0.9 | -13 | . | 5 | 0.3
- O=S(=O)(Cc1ccccc1Cl)N1CCN(Cc2ccc3c(c2)OCO3)CC1
  0.1%[38.3 µM] | -0.3&-3.9 | -3 | -7 | -6 | -0.3
- Cc1ccccc1NS(=O)(=O)c1cccc(C(=O)Nc2cccc(C(=O)O)c2)c1
  1.8% | -1.7 | -3 | 7 | -1 | 0.3
- CC(=O)c1c(C)[nH]c(C(=O)COC(=O)c2ccc3c(=O)n4c(nc3c2)CCC4)c1C
  -0.4% | -1.1 | -6 | 2 | 16 | 0.6
- COc1cccc(NC(=O)[C@H](CC(C)C)NC(=O)[C@@H]2Cc3ccccc3CN2)c1
  1.5% | -3.6 | -22 | -4 | 5 | -0.3
- O=S(=O)(/N=C(/Nc1ccc(F)c(F)c1F)c1ccccc1)c1ccccc1
  1.2% | -1.7 | 3 | 2 | 12 | 0.2
- CC(=O)c1c(C)[nH]c(C(=O)COc2cc(C)cc(C)c2)c1C
  15%[38.3 µM] | 2.9 | -12 | 1 | 0 | 1.2
- Cc1nc(CCNC(=O)CC2C(=O)NCCN2Cc2ccccc2)nc2c1CCC2 (stereo not drawn)
  0.7% | -2.6 | -5 | -10 | 18 | -0.5
- CN(C(=O)COc1ccccc1C(=O)NCc1ccccc1)C1CCS(=O)(=O)C1 (stereo not drawn)
  6.0% | -1.4 | 15 | 0 | 12 | 0.0
- Cc1cc(NC(=O)c2ccccc2)sc1C
  -1.5% | -5.3 | -9 | 5 | -1 | -1.3
- CSCCC(c1nnnn1Cc1ccccc1)N1CCN(C/C=C/c2ccccc2)CC1 (stereo not drawn)
  1.0% | -4.0 | -19 | -18 | -26 | 11
- CC(C)(C)NS(=O)(=O)c1ccc(NC(=O)C2CCCO2)cc1 (stereo not drawn)
  -0.9% | 4.9 | 2 | 10 | 5 | 0.2
- COc1ccc(CN2CCNC(=O)C2CC(=O)N(C)Cc2ccon2)c(F)c1 (stereo not drawn)
  3.6% | -8.0 | -7 | -1 | 4 | 0.4
- O=C(O)c1ccc(C(=O)Nc2ccc(F)cc2)cc1
  -0.5% | 1.7 | -9 | 10 | 4 | -0.1
- Nc1nc(SCc2ccccc2)ns1
  -0.2% | -5.2 | 3 | 3 | 0 | 0.7
- Nc1cc2nsnc2cc1Br
  12% | 14 | ? | ? | -2 | 1.9
- O=C(O)CN1C(=O)/C(=C\c2cc(Br)ccc2OCc2ccccc2F)SC1=S
  0.0% | -3.7 | -9 | . | -5 | 1.7
- O=C(CN1C(=O)COc2ccccc21)NCCCN1CCCCC1
  -1.3% | -2.0 | -7 | 1 | -1 | -0.1
- O=[N+]([O-])c1ccc(OCc2cn([C@@H](CO)c3ccccc3)nn2)c(Br)c1
  -0.1% | -0.4 | -5 | 22 | 10 | 0.8
- COc1ccc(N(CC(C)C)S(=O)(=O)c2nnc(NC(=O)CC(C)C)s2)cc1
  18% | 2.8 | -6 | 2 | 2 | 0.5
- O=C(CN1C(=O)c2ccc([N+](=O)[O-])cc2C1=O)NCCC1=CCCCC1
  -0.2% | ? | -10 | 5 | -8 | 0.1
- COc1ccc(NC(=O)C(c2ccc(OC)cc2)N(C)C(=O)CNC(C)=O)cc1 (stereo not drawn)
  -1.0% | -1.2 | -9 | 2 | -1 | 1.6
- CCOc1ccccc1CN1CCN(CCCn2cccn2)CC1CCO (stereo not drawn)
  0.2% | -3.6 | -11 | . | -5 | 0.4
- COc1ccccc1NC(=O)c1ccc(NC(=O)COC(=O)c2ccc(O)cc2)cc1
  4.2% | 0.8 | 0 | -10 | -5 | 1.1
- CCOC(=O)c1[nH]c(=S)n(-c2ccccc2)c1C(=O)OCC
  0.1% | -2.6 | -11 | -20 | 4 | 1.0
- Cc1cccc(C)c1N(CC(=O)N1CCCC1)S(C)(=O)=O
  -2.0% | 6.9 | 1 | 3 | 4 | 0.5
- CCN(CC(=O)NCc1ccc(Cl)cc1)C(=O)/C=C/c1ccc(Cl)c([N+](=O)[O-])c1
  8.4% | -1.8 | -5 | -4 | 1 | 2.7
- Cc1ccc2c(CC(=O)NC3CCCc4ccccc43)coc2c1 (stereo not drawn)
  5.1% | -1.3 | 16 | 10 | 2 | 2.0
- CC1CCN(S(=O)(=O)c2ccc([N+](=O)[O-])cc2)CC1
  3.5% | 6.4 | 11 | -9 | -10 | -0.3
- O=C(O)c1ccc([N+](=O)[O-])cc1-c1cc([N+](=O)[O-])ccc1C(=O)O
  -1.9% | -3.2 | -7 | 1 | 9 | 0.4
- COC(=O)Nc1ccc(S(=O)(=O)N2CCCC(C(=O)NC3CCCCC3)C2)cc1 (stereo not drawn)
  1.1% | -0.3 | 8 | 1 | -1 | 0.7
- CCOc1ccccc1CNn1cnnc1SCC(=O)NC(C)(C)C
  1.9% | 0.2 | -26 | 11 | 3 | -0.3
- COc1cccc(N(C(=O)c2cccs2)c2nc3ccccc3s2)c1
  5.9% | -3.9 | 0 | 5 | 12 | 1.2
- COc1ccc(N2CCN(C(C)C(=O)N3CC(C)OC(C)C3)CC2)cc1 (stereo not drawn)
  0.3% | -3.5 | 1 | 0 | -17 | -0.7
- O=C(NCc1ccccn1)c1cc(-c2ccc(Cl)cc2)oc1C(F)(F)F
  0.7% | -3.9 | -8 | 0 | 20 | 2.7
- COC(=O)c1sccc1NC(=O)c1cccs1
  3.7% | -1.4 | 2 | . | 6 | 1.1
- COc1cc(-c2nnn(CC(=O)NC3CCS(=O)(=O)C3)n2)ccc1OCc1ccccc1 (stereo not drawn)
  0.2% | -3.1 | -1 | -6 | -14 | -0.6
- Cc1ccc(S(=O)(=O)NC2CC(C)(C)N(O)C(C)(C)C2)cc1
  -2.4% | -2.5 | 9 | 23 | 0 | -0.3
- C[C@@H]1CN(C2CCN(Cc3nc(CC4CC4)no3)CC2)C[C@H](C)O1
  -2.1% | 3.6 | -1 | 1 | 9 | 0.6
- C=C1C(=O)O[C@@H]2[C@H]1[C@@H](OC(=O)/C(C)=C/C)C/C(C)=C\C(=O)/C=C(\C)[C@@H]2O
  ? | -0.2 | -5 | . | 0 | 0.1

Filtered by structure, the entries above with a thiophene ring, fused or not (3)
Each structure is followed by: PINK1 modulator | D2 ag | D2 PAM | CtBP-E1A blk | Six1-Eya2 blk | TRPML1 ag
- Cc1cc(NC(=O)c2ccccc2)sc1C
  -1.5% | -5.3 | -9 | 5 | -1 | -1.3
- COc1cccc(N(C(=O)c2cccs2)c2nc3ccccc3s2)c1
  5.9% | -3.9 | 0 | 5 | 12 | 1.2
- COC(=O)c1sccc1NC(=O)c1cccs1
  3.7% | -1.4 | 2 | . | 6 | 1.1

Next entries follow.
Each structure is followed by: PINK1 modulator | D2 ag | D2 PAM | CtBP-E1A blk | Six1-Eya2 blk | TRPML1 ag
- CCn1c(COc2ccc3c(c2)OCO3)nnc1SCC(=O)O
  1.3% | 2.3 | 0 | 1 | -1 | 0.5
- N=C1C(c2ccccc2)=C(O)CN1c1ccccc1N1CCOCC1
  2.6%[38.3 µM] | -2.7 | -10 | 5 | -2 | -0.1
- COc1cc(NC(=O)CCCSc2nc(-c3ccco3)cc(C(F)(F)F)n2)cc(OC)c1OC
  4.0%&-1.0% | 2.0 | 2 | -11 | -16 | 2.3&3.3
- CCNS(=O)(=O)c1ccc(CCC(=O)NCc2ccncc2)cc1
  0.9% | 0.3 | -1 | -3 | -2 | 0.8
- CN(C1CCCCC1)S(=O)(=O)c1ccc(Cl)c(C(=O)O)c1
  -0.2% | -2.7 | 0 | 2 | 0 | 0.1
- C=C1CCC(OC(C)=O)C2(C)CCC3C(C)C(=O)OC3C12O (stereo not drawn)
  0.6% | -1.7 | -7 | -12 | 12 | 0.7
- CSc1nc2[nH]c3c(c2c2nnnn12)CCCC3
  -3.2% | -4.7 | -4 | -24 | -26 | 1.6
- O=C(NNS(=O)(=O)c1ccccc1)C1CCCCC1
  -1.0% | 0.9 | 0 | -1 | 4 | -0.2
- COCC(CN1CCN(C2=NS(=O)(=O)c3ccccc32)CC1)OC(=O)c1ccccc1 (stereo not drawn)
  0.7% | -1.0 | -13 | 5 | -5 | -0.5
- O=C(c1cc(-c2ccccc2)nn1-c1ccccc1)N1CCN(S(=O)(=O)c2c(F)cccc2F)CC1
  ? | -0.7 | 14 | -6 | 1 | 1.3
- Cc1cc(C)n(-c2nc3c(c(=O)[nH]c(=O)n3C)n2CC(O)COc2ccccc2)n1 (stereo not drawn)
  -2.4% | -3.6 | 0 | -1 | -3 | 1.9
- Cc1ccc(S(=O)(=O)N(C)C)cc1NC(=S)NC(C)CCCC(C)C (stereo not drawn)
  ? | 3.8 | -41 | 13 | 3 | -0.3
- CCOC(=O)c1ccccc1NC(=O)c1cccc2c1C(=O)N(C1CCN(C(=O)OCC)CC1)C2
  0.2% | -2.8 | -1 | -14 | -10 | 0.1
- C[C@@H]1CN([C@@H](C)CO)C(=O)CCCn2nncc2CO[C@@H]1CN(C)C(=O)c1ccccc1
  0.0% | -0.3 | . | 7 | 1 | .
- Cc1sc2cc(-c3cccc([N+](=O)[O-])c3)c(-c3cccc([N+](=O)[O-])c3)c[n+]2c1C
  0.4% | -2.1 | 1 | 13 | -10 | -0.1
- CC1CCN(C(=O)CN2C(=O)NC3(CCCCCC3)C2=O)CC1
  -2.4% | -0.6 | -7 | -4 | 3 | 0.0
- COc1ccc(-n2c(SC(C)C(=O)Nc3ccc(NC(C)=O)cc3)nc3ccccc3c2=O)cc1OC (stereo not drawn)
  1.5% | 1.5 | 4 | 0 | 12 | 2.2
- COC(=O)c1cc(Cl)c(N)cc1OC
  -0.4%[38.3 µM] | -1.8 | -4 | 1 | 0 | 3.1
- CC(C)c1nc2cc(C(=O)N(C)C3CCOCC3)ccc2o1
  1.6% | -2.6 | 3 | 3 | 2 | -0.3
- CC1CCCCC1NC(=O)CN1C(=O)CSc2cc(S(=O)(=O)N3CCCCCC3)ccc21 (stereo not drawn)
  5.8% | -6.8 | -23 | 0 | 3 | 1.3
- O=C(CCc1nc(-c2ccccc2Cl)no1)NCCc1ccccc1
  0.6% | 4.1 | -6 | 3 | 3 | 1.0
